Screening results as filed in PubChem BioAssay.
FGF22 binding: binders of recombinant human FGF22 by thermal shift. Q9HCT0. SYPRO orange fluorescence; percent of sucrose octasulfate shift, DMSO zero. calls only at 9.99 µM. actives 1.5% (n = 340,000);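 active means melting point raised past a set limit in the mean and every replicate; three in four hits are not shown here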
Target sequence (Q9HCT0 whole entry, looked up): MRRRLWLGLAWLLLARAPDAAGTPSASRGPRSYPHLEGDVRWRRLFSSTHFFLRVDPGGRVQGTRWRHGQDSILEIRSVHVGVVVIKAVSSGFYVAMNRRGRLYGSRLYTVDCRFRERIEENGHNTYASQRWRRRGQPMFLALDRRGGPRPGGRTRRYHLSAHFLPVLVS
Ecoli rRNA inh: inhibits bacterial ribosomal RNA function over humanized ribosomes | E. coli WT GFP vs humanized-ribosome RFP mutants, fluorescence, 24 h; active compounds read low; DMSO median 0, no signal -100 | GFP signal change (wild-type ribosome), % (test concentration not listed) | actives 1.6% (n = 350,000) | AID 720706;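 active means significant combined selectivity score with lowered wild-type GFP, culture density cut under 30%, mutant RFP and density less affected; inactive means any of these conditions unmet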; further: one replicate is shown; some compounds called inactive have numbers as strong as hits
Ecoli rRNA inh OD600: also measured in Ecoli rRNA inh; calls as there; OD600 change, %; measured here: OD600 growth;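 optical density of the mix in the first replicate; 0 = DMSO median and -100 = no signal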
Ecoli rRNA inh RFP: further read-out of Ecoli rRNA inh, marked with its call; RFP signal change, %; measured here: RFP humanized mutant strains;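 first replicate; 0 = DMSO median and -100 = no signal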
Active calls of the source: *; i = inactive; + = active, no number; & = joins results of further samples. These rows are one share of the data; rates above refer to the full screens.

| FGF22 binding | Ecoli rRNA inh | Ecoli rRNA inh OD600 | mol | Ecoli rRNA inh RFP |
| --- | --- | --- | --- | --- |
| i | 9 | -2 | CC(C)CC#Cc1ccc2c(c1)O[C@H](CN(C)C(=O)CN(C)C)[C@@H](C)CN([C@H](C)CO)S2(=O)=O | 2.1 |
| i | 3 | 3 | CN1C(=O)c2cc(NC(=O)c3cscn3)ccc2OC[C@@H]2O[C@@H](CC(=O)NCC3CC3)CC[C@H]21 | -2.3 |
| i | 7 | 1 | O=C(Nc1cc(F)ccc1F)N1CC(=O)N2[C@H](C1)[C@@H](c1ccc(C#CC3CCCCC3)cc1)[C@@H]2CO | -0.7 |
| i | 2 | 7 | C[C@H](CO)N1C[C@H](C)[C@@H](CN(C)C(=O)Nc2cccc3ccccc23)OCCCC[C@H](C)Oc2ccc(NC(=O)Nc3ccc(C(F)(F)F)cc3)cc2C1=O | 0.2 |
| i | -1 | -6 | COCc1cn(CC[C@@H]2CC[C@@H](NC(=O)Nc3ccc(C(F)(F)F)cc3)[C@H](CO)O2)nn1 | -0.6 |
| i | -3 | -6 | CCc1cnc(N2[C@H](CO)[C@@H](c3ccc(C#CC(C)C)cc3)[C@@H]2C#N)s1 | 0.8 |
| i | -3 | -8 | COCC(=O)Nc1ccc2c(c1)[C@H]1C[C@H](CC(=O)N[C@@H](C)c3ccccc3)O[C@H](CO)[C@H]1O2 | -0.6 |
| i | 2 | 15 | CCNC(=O)C[C@H]1CC[C@@H]2[C@H](COc3ccc(NC(=O)c4ccccc4)cc3C(=O)N2C)O1 | -2.4 |
| i | 1 | 1 | CC(C)C#Cc1ccc2c(c1)O[C@@H](CN(C)C(=O)C1CC1)[C@@H](C)CN([C@H](C)CO)S2(=O)=O | 2.8 |
| i | -3 | -10 | CCCNC(=O)N1CC2(CN(S(C)(=O)=O)C2)c2c(n(C)c3cc(OC)ccc23)[C@@H]1CO | -0.2 |
| i | -1 | -5 | C[C@@H]1CN([C@@H](C)CO)C(=O)c2cc(-c3cccc(F)c3)cnc2O[C@H]1CN(C)Cc1ccncc1 | -2.0 |
| i | -4 | -14 | COc1ccc(S(=O)(=O)Nc2ccc3c(c2)C(=O)N([C@H](C)CO)C[C@H](C)[C@H](CN(C)Cc2ccccc2)OCCCC[C@H](C)O3)cc1 | 5.4 |
| i | 1 | 12 | CCCNC(=O)N(C)C[C@@H]1Oc2ncc(-c3ccccc3F)cc2C(=O)N([C@@H](C)CO)C[C@H]1C | -3.4 |
| i | -2 | -9 | CN1[C@H](C(=O)NCCc2ccccc2)[C@@H](CO)[C@@H]2Cn3c(ccc(-c4ccccc4)c3=O)[C@@H]21 | 2.4 |
| i | -3 | -11 | C[C@H]1CN([C@@H](C)CO)C(=O)Cc2cc(NC(=O)Nc3cccc4ccccc34)ccc2O[C@H]1CN(C)Cc1ccccc1 | 10 |
| i | -3 | 4 | CCCNC(=O)N(C)C[C@H]1Oc2ncc(-c3ccc(OC)cc3)cc2C(=O)N([C@@H](C)CO)C[C@@H]1C | -1.4 |
| i | 0 | -4 | C[C@@H]1CCCCO[C@H](CN(C)C(=O)Nc2ccc(C(F)(F)F)cc2)[C@@H](C)CN([C@H](C)CO)C(=O)c2cc(NC(=O)c3ccccc3)ccc2O1 | -0.2 |
| + | -5 | -9 | COc1ccc(NC(=O)N(C)C[C@H]2Oc3ccc(NS(=O)(=O)c4ccc(Cl)cc4)cc3C(=O)N([C@H](C)CO)C[C@H]2C)cc1 | -1.4 |
| i | 1 | 6 | CO[C@@H]1CN(C)C(=O)c2cc(NC(=O)C3CC3)ccc2OC[C@H](C)N(C(=O)CN(C)C)C[C@H]1C | 0.5 |
| i | -38 | -70 | O=C(C[C@H]1CC[C@@H]2[C@H](COC[C@H](O)CN2Cc2cc(F)ccc2F)O1)NCc1ccc(Cl)cc1 | -3.8 |
| i | -57 | -79 | COc1ccccc1C#Cc1ccc([C@@H]2[C@H](CO)N3CCCCN(C(=O)C4CCC4)C[C@@H]23)cc1 | -17 |
| i | 1 | -1 | COc1ccccc1-c1ccccc1[C@@H]1[C@H](C#N)N(C(=O)C2CC2)[C@H]1CO | -1.0 |
| i | 1&7 | -2&3 | C/C=C/c1ccc(C2[C@H]3CNC[C@@H]2N3C(=O)NC2CCCCC2)cc1 (stereo partly drawn) | 2.7&4.4 |
| i | 3 | -1 | C[C@H]1CN([C@@H](C)CO)C(=O)c2cc(NS(=O)(=O)c3ccc(F)cc3)ccc2O[C@@H]1CN(C)S(=O)(=O)c1ccccc1 | -0.3 |
| i | 5 | 11 | CCC(=O)N(C)C[C@H]1Oc2ncc(-c3cccc(OC)c3)cc2C(=O)N([C@@H](C)CO)C[C@H]1C | -4.1 |
| i | 1 | 3 | C[C@@H]1CCCCO[C@@H](CN(C)C(=O)Nc2ccccc2)[C@H](C)CN([C@@H](C)CO)C(=O)c2cc(N(C)C)ccc2O1 | 2.6 |
| i | 1 | 1 | C[C@@H]1CN([C@H](C)CO)S(=O)(=O)c2ccc(C#CC3(O)CCCC3)cc2O[C@@H]1CN(C)C(=O)Nc1ccc(F)cc1 | -1.0 |
| i | 1 | 14 | COc1ccc2c3c([nH]c2c1)[C@H](CO)N(CC1CC1)CC31CN(C(=O)NC2CCCC2)C1 | -0.8 |
| i | 7 | 15 | CCCCCCCCN1C(=O)[C@@H](CC(=O)N2CCSCC2)C[C@@]2(C(=O)OC)C1=C[C@H](C1CCCC1)O[C@@H]2C | 1.2 |
| i | 1 | 0 | COc1ccccc1-c1ccc2n(c1=O)C[C@H]1[C@H](CO)[C@@H](C(=O)Nc3nccs3)N(CC3CC3)[C@@H]21 | 1.0 |

As entered above.
Reading for C[C@@H]1CCCCO[C@H](CN(C)C(=O)Nc2ccc(C(F)(F)F)cc2)[C@@H](C)CN([C@H](C)CO)C(=O)c2cc(NC(=O)c3ccccc3)ccc2O1 in Ecoli rRNA inh RFP: -0.2
Reading for COc1ccc2c3c([nH]c2c1)[C@H](CO)N(CC1CC1)CC31CN(C(=O)NC2CCCC2)C1 in Ecoli rRNA inh: 1
Reading for C[C@@H]1CN([C@H](C)CO)S(=O)(=O)c2ccc(C#CC3(O)CCCC3)cc2O[C@@H]1CN(C)C(=O)Nc1ccc(F)cc1 in Ecoli rRNA inh: 1
Reading for CCc1cnc(N2[C@H](CO)[C@@H](c3ccc(C#CC(C)C)cc3)[C@@H]2C#N)s1 in Ecoli rRNA inh: -3

Remaining list, next part
| FGF22 binding | Ecoli rRNA inh | Ecoli rRNA inh OD600 | mol | Ecoli rRNA inh RFP |
| --- | --- | --- | --- | --- |
| i | 1 | -3 | O=C(C[C@@H]1C[C@H]2c3cc(NC(=O)c4ccc5c(c4)OCO5)ccc3O[C@H]2[C@H](CO)O1)NCCN1CCCCC1 | 0.1 |
| i | 3 | 13 | C[C@H]1CN([C@@H](C)CO)C(=O)c2cc(-c3ccccc3)cnc2O[C@@H]1CN(C)Cc1cccnc1 | -5.5 |
| i | -2 | 0 | O=C(N[C@H]1CC[C@@H](CCNS(=O)(=O)c2ccc(Cl)cc2)O[C@@H]1CO)c1cccc(F)c1 | 1.3 |
| i | 1 | -5 | O=C(C[C@@H]1CC[C@@H]2[C@H](COC[C@H](O)CN2S(=O)(=O)c2cccc(Cl)c2)O1)NC1CCC1 | -3.3 |
| i | 3 | 6 | C/C=C/c1ccc([C@H]2[C@H](CO)N(C(=O)C3CC3)C23CN(C(=O)NC(C)C)C3)cc1 | -0.5 |
| i | 0 | 0 | CCCNC(=O)C[C@@H]1C[C@H]2c3cc(NS(=O)(=O)c4cccc(OC)c4)ccc3O[C@H]2[C@@H](CO)O1 | -4.0 |
| i | 2 | 9 | Cc1ccc(S(=O)(=O)Nc2ccc3c(c2)C(=O)N([C@@H](C)CO)C[C@@H](C)[C@H](CN(C)C)OCCCC[C@@H](C)O3)cc1 | -1.7 |
| i | 9&-1 | 7&8 | C[C@@H]1CCCCO[C@H](CN(C)Cc2ccncc2)[C@@H](C)CN([C@H](C)CO)C(=O)c2cc(N(C)C)ccc2O1 | 3.2&1.1 |
| i | -2 | 3 | C[C@H](CO)N1C[C@H](C)[C@H](CN(C)C(=O)Nc2cccc3ccccc23)OCCCC[C@H](C)Oc2ccc(NC(=O)Nc3ccccc3)cc2C1=O | -0.6 |
| i | 1 | 3 | C[C@@H]1CN([C@@H](C)CO)S(=O)(=O)c2ccc(/C=C/c3ccccc3)cc2O[C@H]1CN(C)C(=O)Nc1cccc(F)c1 | -2.1 |
| i | 2 | 4 | CC(=O)N[C@H]1CC[C@@H](CC(=O)NCc2ccc(Cl)cc2)O[C@H]1CO | 1.9 |
| i | 1 | -4 | C[C@H](CO)N1C[C@H](C)[C@@H](CN(C)S(C)(=O)=O)Oc2ccc(NS(=O)(=O)c3ccc(Cl)cc3)cc2CC1=O | 0.2 |
| i | 4 | 10 | COCC#Cc1cnc2c(c1)C(=O)N([C@H](C)CO)C[C@H](C)[C@@H](CN(C)Cc1ccccc1)O2 | -3.4 |
| i | -6 | -8 | O=C(C[C@H]1CC[C@H](NC(=O)Nc2ccc3c(c2)OCO3)[C@@H](CO)O1)NCc1ccc(Cl)cc1 | 1.3 |

Ordered by value in Ecoli rRNA inh RFP (largest number first): 7 from the list above.
| FGF22 binding | Ecoli rRNA inh | Ecoli rRNA inh OD600 | mol | Ecoli rRNA inh RFP |
| --- | --- | --- | --- | --- |
| i | 1 | -4 | C[C@H](CO)N1C[C@H](C)[C@@H](CN(C)S(C)(=O)=O)Oc2ccc(NS(=O)(=O)c3ccc(Cl)cc3)cc2CC1=O | 0.2 |
| i | 1 | -3 | O=C(C[C@@H]1C[C@H]2c3cc(NC(=O)c4ccc5c(c4)OCO5)ccc3O[C@H]2[C@H](CO)O1)NCCN1CCCCC1 | 0.1 |
| i | 3 | 6 | C/C=C/c1ccc([C@H]2[C@H](CO)N(C(=O)C3CC3)C23CN(C(=O)NC(C)C)C3)cc1 | -0.5 |
| i | -2 | 3 | C[C@H](CO)N1C[C@H](C)[C@H](CN(C)C(=O)Nc2cccc3ccccc23)OCCCC[C@H](C)Oc2ccc(NC(=O)Nc3ccccc3)cc2C1=O | -0.6 |
| i | 1 | 3 | C[C@@H]1CN([C@@H](C)CO)S(=O)(=O)c2ccc(/C=C/c3ccccc3)cc2O[C@H]1CN(C)C(=O)Nc1cccc(F)c1 | -2.1 |
| i | 1 | -5 | O=C(C[C@@H]1CC[C@@H]2[C@H](COC[C@H](O)CN2S(=O)(=O)c2cccc(Cl)c2)O1)NC1CCC1 | -3.3 |
| i | 0 | 0 | CCCNC(=O)C[C@@H]1C[C@H]2c3cc(NS(=O)(=O)c4cccc(OC)c4)ccc3O[C@H]2[C@@H](CO)O1 | -4.0 |

2 entries from above in another layout.
Each structure is followed by: FGF22 binding, Ecoli rRNA inh, Ecoli rRNA inh OD600, Ecoli rRNA inh RFP
- C[C@@H]1CCCCO[C@H](CN(C)Cc2ccncc2)[C@@H](C)CN([C@H](C)CO)C(=O)c2cc(N(C)C)ccc2O1
 : i, 9&-1, 7&8, 3.2&1.1
- C[C@H](CO)N1C[C@H](C)[C@H](CN(C)C(=O)Nc2cccc3ccccc23)OCCCC[C@H](C)Oc2ccc(NC(=O)Nc3ccccc3)cc2C1=O
 : i, -2, 3, -0.6
